PINK1 modulator: modulators of PINK1 expression. PINK1 immunofluorescence, high-content cytometry, 24 h. Potency, µM (highest dose often 76.6 µM), inactives show top-dose activation (PINK1 increase), hits mostly activators. actives 0.2% (n = 410,000). AID 624263; active = well fitted activation curve with a large enough effect; inconclusive = small, poorly fitted or top-dose-only effect; inactive = flat fitted curve, though single readings scatter; cell line not stated here;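 note: potency is the fitted concentration of half-maximal effect; % of control where 0% means no effect; nearly all actives have a fitted effect of over 65% in size; a mitochondrial uncoupler was the plate control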
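Compound titrations (5 concentrations, 24 h) on a stable cell line; DMSO and CCCP controls. Endpoint: fixed-cell PINK1 immunofluorescence with mitochondrial, cell and nuclear markers, scanned by microplate cytometer.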
TRPML1 blocker: inhibitors of human TRPML1 channel; Q9GZU1; TRPML1-inducible cells, Ca2+ dye fluorescence, FDSS; stronger effect = lower value; inhibition of EC80 agonist-evoked calcium signal; activity change, negative = inhibition, % (no concentration beside the values); actives 0.02% (n = 390,000); AID 624415; in the data active means activity change below about -50%; inconclusive means about -30% to -50%; inactive means above about -30%;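 note: stimulus is agonist 54-4 at its EC80 concentration; % is set by controls: 0 for no effect and ±100 for the full control effect; compound concentration not given in the record; the text of the record puts the active cut at -80%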
Target sequence (Q9GZU1 whole entry, looked up): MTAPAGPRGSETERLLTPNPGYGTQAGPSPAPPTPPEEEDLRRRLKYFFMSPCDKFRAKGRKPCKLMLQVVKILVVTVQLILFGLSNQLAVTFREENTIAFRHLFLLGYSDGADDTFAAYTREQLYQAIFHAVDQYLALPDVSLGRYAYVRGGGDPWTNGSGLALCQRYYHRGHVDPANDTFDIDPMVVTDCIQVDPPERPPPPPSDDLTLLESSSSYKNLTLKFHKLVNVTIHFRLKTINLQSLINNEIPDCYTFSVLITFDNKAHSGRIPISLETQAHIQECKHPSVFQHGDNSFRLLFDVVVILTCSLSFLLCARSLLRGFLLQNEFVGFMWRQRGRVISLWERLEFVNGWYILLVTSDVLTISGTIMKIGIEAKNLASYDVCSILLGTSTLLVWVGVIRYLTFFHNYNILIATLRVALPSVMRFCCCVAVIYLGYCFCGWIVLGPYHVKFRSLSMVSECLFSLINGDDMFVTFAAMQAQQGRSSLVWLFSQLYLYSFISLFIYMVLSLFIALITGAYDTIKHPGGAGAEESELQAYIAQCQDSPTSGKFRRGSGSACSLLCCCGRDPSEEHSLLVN
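Tet-induced TRPML1-DL cells loaded with Ca8 no-wash calcium dye were read kinetically on FDSS. Compound addition was followed by EC80 agonist 54-4 (4 uM final); inhibition was read over 110 s.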
Six1-Eya2 blk: inhibitors of human Six1/Eya2 interaction | Q15475+O00167 | AlphaScreen GST-Six1/His-Eya2 binding, biochemical; stronger effect = lower value; control for the full effect not named in the record | activity change, % (concentration not given with the values) | actives 0.56% (n = 360,000) | AID 651725; in the data active = activity change below about -65%; inconclusive = about -30% to -65%; inactive = above about -30%; note: % is set by controls: 0 for no effect and ±100 for the full control effect
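Six1/Eya2 binding was read as AlphaScreen signal after compounds were pinned into GST-Six1 plus His-tagged Eya2 (5X stock 250/500 nM) in pH 8.0 Tris/NaCl/TCEP buffer, beads added, then incubated 1 h, 37 C, dark.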
TRPML1 agonist: human mucolipin-1 channel agonism; Q9GZU1; TRPML1-expressing cells, Ca2+ dye fluorescence, FDSS; host cell line not named in the record; reference of the full effect not given here; activation, % (no concentration beside the values); actives 0.12% (n = 410,000); in the data active = activation above about 50%; inconclusive = about 30% to 50%; inactive = below about 30%; note: 0% is about no effect; the text of the record puts the active cut at 80%
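In this qHTS format, compounds were pin-transferred onto Ca8-dye-loaded TRPML1-DL cells induced with Tet overnight, and intracellular Ca2+ fluorescence was recorded kinetically for 110 s after a 10 s baseline. A subsequent 4uM final 54-4 (EC80) addition followed by a second 110 s read served as the antagonist phase.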
D2 agonist: human D2 receptor agonism in beta-arrestin assay | P14416 | DiscoveRx PathHunter D2 beta-arrestin, luminescence, 90 min; 100% = 57 uM dopamine signal | activation, % (test concentration not listed) | actives 0.084% (n = 360,000) | AID 624465; in the data active = activation above about 40%; inconclusive = about 15% to 40%; inactive = below about 15%; note: compound concentration not given in the record; the text of the record calls up to 30% inactive
Target sequence (P14416 whole entry, looked up): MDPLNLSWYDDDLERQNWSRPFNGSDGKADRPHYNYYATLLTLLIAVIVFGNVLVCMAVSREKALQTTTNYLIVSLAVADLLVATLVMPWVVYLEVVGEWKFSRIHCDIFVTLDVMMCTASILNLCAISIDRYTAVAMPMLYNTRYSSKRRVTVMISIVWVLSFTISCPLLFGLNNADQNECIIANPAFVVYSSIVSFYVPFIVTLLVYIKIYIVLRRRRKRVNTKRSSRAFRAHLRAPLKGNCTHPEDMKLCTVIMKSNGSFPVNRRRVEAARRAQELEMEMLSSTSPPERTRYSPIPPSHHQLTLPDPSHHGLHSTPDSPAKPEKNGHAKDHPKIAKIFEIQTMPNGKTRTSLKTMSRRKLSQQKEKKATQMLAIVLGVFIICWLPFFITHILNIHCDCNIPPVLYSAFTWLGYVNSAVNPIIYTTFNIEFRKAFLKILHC
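DiscoveRx PathHunter D2 beta-arrestin cells (2,100/well) attached overnight, then compound-stimulated 90 min at 37 C in HBSS/10 mM HEPES/0.1% Tween-20 buffer; beta-galactosidase complementation read by luminescence after 1 h at ambient temperature. Dopamine 57 uM final (EC100) as control.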
CtBP-E1A blk: inhibitors of CtBP/E1A interaction | AlphaScreen GST-E1A/His-CtBP binding, 1536-well; stronger effect = lower value; control for the full effect not named in the record | activity change, % (concentration not given with the values) | actives 0.49% (n = 340,000) | AID 651724; in the data active means activity change below about -65%; inconclusive means about -30% to -65%; inactive means above about -30%; note: % is set by controls: 0 for no effect and ±100 for the full control effect
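In 5 uL wells, 23 nL compound meets equimolar GST-E1A and His-CtBP (5X stock 125 nM each) for 2 h, 37 °C. Beads (5X, 50 ug/mL) then 1 h, 37 °C, dark.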
* marks the source's active call; other numbers are inactive results; ? = inconclusive; . = no result given; [ ] = remark or other dose.

Start of the listing, in advance (two entries):
SMILES	PINK1 modulator	TRPML1 blocker	Six1-Eya2 blk	TRPML1 agonist	D2 agonist	CtBP-E1A blk
N/C(COc1cc(Cl)cc(Cl)c1)=N\O	0.3%	0.8	13.2	-0.6	0.5	6.7
O=C(NCCc1ccccn1)/C(=C/c1ccco1)NC(=O)c1ccccc1	-0.1%	20.6	-1.6	-0.6	-2.6	6.5

Main list, previewed entries included:
SMILES	PINK1 modulator	TRPML1 blocker	Six1-Eya2 blk	TRPML1 agonist	D2 agonist	CtBP-E1A blk
N/C(COc1cc(Cl)cc(Cl)c1)=N\O	0.3%	0.8	13.2	-0.6	0.5	6.7
O=C(NCCc1ccccn1)/C(=C/c1ccco1)NC(=O)c1ccccc1	-0.1%	20.6	-1.6	-0.6	-2.6	6.5
C=CCC1(O)C(=O)N2C(=C1C(=O)OCC)c1ccc3ccccc3c1CC2(C)C (stereo not given)	-3.7%	15.5	-3.2	4.1	2.6	-3.8
COc1ccc(CN2C[C@@H](CO)O[C@@H](n3cnc4c(NCCO)ncnc43)C2)cc1	-0.9%	.	4.0	-0.7	-4.4	0.9
Cc1ccc(C(=O)CN2CCN(c3ccccn3)CC2)c(C)c1	0.0%	-2.0	8.0	1.4	?	3.1
O=S(=O)(c1ccc2c(c1)CCCN2)N1CCCC2CCCCC21 (stereo not given)	3.9%	23.5	-10.4	3.0	0.3	-8.3
COc1cc(OC)c(/C=N/n2c(C)nnc2C)c(OC)c1	10.4%	1.4	2.9	-0.3	-4.7	9.7
Cc1ccc2c(c1)C1CN(C)CCC1N2S(=O)(=O)c1ccc(C(C)C)cc1 (stereo not given)	1.9%	2.5	-8.8	0.7	-2.2	-11.8
Cn1cc(C(=O)N/N=C/c2cccc([N+](=O)[O-])c2)c2ccccc21	8.1%	-3.8	0.2	0.3	-4.1	4.2
CCC(=O)Nc1ccc(-c2nnc(SCC(=O)N3CCCCC3)n2C)cc1	-0.7%	-10.8	0.6	5.0	-1.0	4.4
CSc1ccccc1C(=O)Nc1cc2c(cc1C(=O)O)OCCCO2	-1.1%	-0.8	-1.2	0.0	-0.5	-0.5
CCc1nnc(NC(=O)C2CCN(S(=O)(=O)c3ccc(C)cc3)CC2)s1	2.5%	-11.7	3.4	0.9	3.5	.
C=CCNc1nc(Cl)nc(Nc2ccc([N+](=O)[O-])cc2)n1	0.6%	2.5	6.4	2.5	-3.9	-14.8
CCCCOC(=O)c1ccc(Nc2ncnc3nc[nH]c23)cc1	4.4%	-14.1	6.6	0.0	-4.3	3.2
COC(=O)c1cn(NC(=O)C2CCCO2)c(=O)c2ccccc12 (stereo not given)	-2.8%	6.4	3.8	-0.1	-3.1	0.0
O=C(NCC1CCCO1)C1CCCN(S(=O)(=O)c2ccc(F)cc2)C1 (stereo not given)	-0.6%	-7.2	19.7	-0.4	1.0	-10.7
CCOC(=O)c1ccc(Nc2cc(C)nc(-c3ccccc3)n2)cc1	18.5%	-13.7	-19.2	2.8	5.2	.
Cn1c(SCC#N)nnc1-c1ccc2c(c1)OCO2	4.7%	-10.3	3.3	0.0	-1.0	5.2
COC(=O)C1=C(C)OC(N)=C(C#N)C1c1cc(C)sc1C (stereo not given)	1.7%	6.9	-3.8	2.9	-2.0	2.9
CC(C)[C@H](NS(=O)(=O)/C=C/c1ccccc1)C(=O)OCC(=O)NC(N)=O	1.7%	-11.4	1.5	-0.8	-2.8	-3.8
Cc1nc(N2CCCCC2)c2ccsc2n1	.	11.7	4.8	0.3	1.0	3.7
O=C1CN(C(=O)c2cc3ccccc3o2)c2ccccc2N1	0.4%	60.4	-5.3	0.0	-3.5	-17.3
CC(C)c1ccc(CN2C(=O)c3ccccc3S2(=O)=O)cc1	2.2%	27.8	22.0	4.3	4.9	13.6
Cc1ccnc(N(C(=O)Nc2ccccc2)C2=NCC(C)(C)S2)c1	0.0%	15.5	-16.9	1.4	2.2	-9.7
O=C(COCc1cc(-c2ccc3c(c2)OCO3)on1)Nc1cccc(O)c1	-0.7%	1.7	.	0.5	.	.
O=C(Cc1ccccc1)NC(NC(=O)Cc1ccccc1)c1cccc([N+](=O)[O-])c1	1.6%	4.8	-2.0	0.8	-2.1	.
O=C(CN1C(=O)NC2(CCCC2)C1=O)Nc1ccc(Cl)c(C(F)(F)F)c1	2.4%	-13.3	-4.1	-0.4	-0.3	2.4
Cc1cc(C)nc(Sc2ccc(/C=C(\C#N)C(N)=O)o2)n1	-0.7%	3.3	1.3	0.3	5.9	-6.4
CCCc1cc(=O)oc2cc(C)cc(OC(C)C(=O)NCCCN3CCOCC3)c12 (stereo not given)	1.3%	0.7	2.9	-0.5	-0.2	-13.9
Cc1ccc(C)c(C(=O)CSc2nnnn2-c2cccnc2)c1	-0.1%	-0.3	0.3	-0.8	0.4	3.9
CCOC(=O)N1CCC(NC(=O)c2ccc3c(c2)N(Cc2ccc(Cl)cc2)C(=O)c2ccccc2S3(=O)=O)CC1	3.2%	-3.3	.	0.8	.	.
O=C(COC(=O)C1=COCCO1)NCc1ccc(F)cc1	1.5%	-2.7	4.5	0.9	-1.1	-1.1
Cc1ccc(-n2nc3c(=O)n(C(C)C(=O)NCc4ccc(Cl)cc4)nc(C)c3c2C)cc1 (stereo not given)	0.2%	17.3	-4.0	2.0	5.9	-9.7
CCOC(=O)c1sc(NC(=O)C(C)Sc2nnc(N)s2)nc1C (stereo not given)	0.5%	6.3	3.4	0.7	2.5	.
CCOc1cccc2cc(C(=O)NC(C)c3ccccc3)c(=N)oc12 (stereo not given)	4.9%	-5.2	10.8	0.7	-2.8	-3.7
Cc1ccc(NC(=O)c2ccc3nc[nH]c3c2)c(O)c1	-0.7%	-1.0	-20.9	0.1	-2.0	-3.2
Nc1ccn(CC(=O)NCc2ccc3c(c2)OCO3)c(=O)n1	0.3%	4.2	10.3	-0.5	-3.1	1.4
Cc1ccc(CNC(=O)C(CC(C)C)NS(=O)(=O)c2ccc3c(c2)oc(=O)n3C)cc1 (stereo not given)	3.3%	44.8	.	0.0	.	.
O=C1c2ccccc2CCC12OC2c1ccc([N+](=O)[O-])cc1 (stereo not given)	-0.7%	89.0	0.1	-0.5	0.7	5.1
COc1ccc(C(=O)N[C@H]2COC(C)(C)O[C@H]2c2ccccc2)cc1	-1.5%	-11.4	3.0	1.1	-1.6	-2.1
Cc1cc(C)n(CCc2nc3c4ccccc4nc(SCc4ccc(F)cc4)n3n2)n1	2.9%	-1.6	.	0.8	.	.
Cc1ncc(CN2CCCC(CCC(=O)NCc3ccc(F)c(F)c3)C2)s1 (stereo not given)	2.1%	-6.7	-2.8	0.0	-5.2	4.1
COc1ccc(N2CCN(S(=O)(=O)c3c(C)nc4sccn4c3=O)CC2)cc1	-0.1%	-3.0	-6.3	-0.1	0.6	-0.9
COc1cc(C=NNC(=O)C(=O)Nc2cccc(Cl)c2)cc(OC)c1O	4.2%	-0.2	-6.0	-0.7	6.7	-7.6
OCCC#Cc1c(-c2ccsc2)sc2ccccc12	-0.5%	-10.5	-8.8	0.3	-2.2	-9.4
CC(C)CNC(=S)N1CCC(NC(=O)C23CC4CC(CC(C4)C2)C3)CC1	0.7%	-7.6	4.8	-0.4	-1.6	8.5
O=C(/C=C/c1ccc(OCCCF)cc1)NCc1ccc(Cl)cc1	13.2%	14.0	4.8	3.3	9.8	7.7
CC(=O)Nc1ccc(NC(=O)C(C)OC(=O)c2ccccc2C(=O)c2ccc(Cl)c([N+](=O)[O-])c2)cc1 (stereo not given)	-2.3%	-1.5	-5.1	1.5	-1.1	-0.9
COc1cc(C(=O)Nc2cccc(S(=O)(=O)NCc3ccco3)c2)cc(OC)c1OC	2.3%	-0.6	-15.3	2.0	3.1	-14.7
COc1cc(N(Cc2ccccc2)Cc2ccccc2)c2ncn(C(C)C)c2c1	0.3%	-3.8	?	-0.8	-0.1	-27.1
COc1ccc(Cc2c(-c3ccc(F)cc3)nc3cc(C)c(Br)c(C)n23)c(C)c1	8.4%	.	-8.4	0.0	.	-7.5
O=C1CN(C(=O)c2ccc(Br)o2)C(c2ccccc2)c2cc(Cl)ccc2N1 (stereo not given)	1.5%	-11.3	-17.0	-1.0	2.4	-6.1
COc1cnn(-c2ccccc2)c(=O)c1N(C)C	12.6µM*	7.2	5.8	1.8	5.2	12.2
CCC(C)C(=O)Nc1nnc(SCC(=O)NC2CCCCC2)s1 (stereo not given)	3.3%	2.5	4.5	0.0	-0.7	5.0
COc1cc(C2C3=C(CCCC3=O)Nc3ccc4ncccc4c32)ccc1O (stereo not given)	3.5%	-7.2	15.3	3.0	-1.8	5.8
O=C(Cn1nc(Cc2cccnc2)c2ccccc2c1=O)NCC1CCCO1 (stereo not given)	0.6%	-3.3	1.3	-0.1	-3.0	4.4
O=C1CSC(=Nc2ccccc2)N1Cc1ccccc1	1.2%	-10.3	5.2	2.3	2.1	12.1
CC1CC(C)CN(C(=O)Cc2c(C(=O)O)[nH]c3ccc(Cl)cc23)C1 (stereo not given)	-2.5%	0.7	9.6	0.4	0.5	1.8
O=C1CC(c2cccc(F)c2)c2c(n3ncnc3[nH]c2=O)N1 (stereo not given)	-1.4%	-3.0	.	1.1	.	.
CCCCCc1c(C)nc(NCc2ccccc2)[nH]c1=O	-0.4%[38.3 µM]	12.5	-3.0	0.9	-3.2	0.3

Later entries:
SMILES	PINK1 modulator	TRPML1 blocker	Six1-Eya2 blk	TRPML1 agonist	D2 agonist	CtBP-E1A blk
Cc1ccc(NC(=O)c2ccc(N3CCCC3=O)cc2)cc1S(=O)(=O)N1CCCCC1	5.9%	-6.1	7.6	-0.9	-1.3	.
Cc1cccnc1NC(=O)CCCN1C(=O)c2ccccc2C1=O	.	-3.1	0.8	0.3	-1.0	10.6
CCCn1c(SCc2cc(=O)oc3ccc4ccccc4c23)n[nH]c1=O	-1.1%	-26.0	-2.6	1.4	-2.1	-1.0
COCC(C)NCc1ccc(OC)c(Br)c1 (stereo not given)	-1.1%	-6.4	2.4	0.0	-0.9	0.6
COc1ccccc1CN1CC(C(=O)NCCc2ccc(C)o2)CCC1=O (stereo not given)	-0.9%	5.0	-0.5	-0.1	-0.5	5.7
Cc1ccc(Nc2ncnc3c2cnn3-c2ccc(C)cc2)cc1	0.3%	-15.6	.	-0.4	.	.
CCN(Cc1ccc(C#CCCO)cc1)CC1CCCN(CCc2cccc(F)c2)C1 (stereo not given)	-1.5%	-1.8	-13.9	0.3	0.6	-10.4
Cc1ccccc1C(=O)Nc1cccc(N)c1	1.0%	34.2	-0.9	-0.5	2.1	2.9
NC(=NC(=O)c1ccccc1)N1CCOCC1	0.5%[38.3 µM]	24.9	2.7	-0.4	-2.5	19.5
Cc1ccc(NC(=O)CCN2C(=O)CSC2=O)cc1	2.4%	9.8	1.3	-0.5	-2.1	5.7
O=C(Cc1cccs1)NCc1cn2ccccc2n1	2.8%	14.8	-6.6	-0.1	-1.2	0.5

From PubChem
